Screens from PubChem BioAssay.
Mtb H37Rv: Mycobacterium tuberculosis H37Rv growth inhibition, cell based, confirmatory dose response (AID 1949); one-dose inhibition, % at 10 µg/mL; IC50 in µg/mL for titrated hits; most inactive calls were filed without a number and no value below 0 was filed; actives 1.6% (n = 100,000);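 active = confirmed in a dose series; inconclusive = about 50% or more but not retested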;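 note: bacteria grown 7 days with compound before Alamar blue readout; 0% = untreated bacteria and 100% = reference antibiotic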
Numbers without * were called inactive; i = inactive; ? = inconclusive.

Molecule | Mtb H37Rv
CCOC(=O)c1c(NC(=O)C(OC(C)=O)c2ccccc2)sc(C(=O)OC)c1C (stereo not drawn) | i
CCn1c(SCC(=O)N2c3ccccc3Sc3ccccc32)nnc1C(C)NC(=O)c1ccc(Cl)cc1Cl (stereo not drawn) | i
CCOc1ccccc1NC(=O)N1CCC2(CC1)OCCO2 | i
CCOC(=O)c1ccc(NC(=O)c2ccc(-c3ccc(Br)cc3)o2)cc1 | 35%
O=C(NCCc1ccccc1)C(=S)NC1CCCC1 | 6%
CCCCNC(=O)c1ccccc1NC(=O)CN(c1ccccc1)S(=O)(=O)N(C)C | i
S=c1nc2c(n[nH]1)-c1cccc3cccc-2c13 | 1%
C=CCSc1nc2nc3c(cc2c(=O)n1-c1cccc(C)c1)COC(C)(C)C3 | i
CS(=O)(=O)N(CC(=O)N1CCc2ccccc2C1)c1cc(Cl)ccc1Cl | i
C=CCOc1ccc(C(=O)Nc2ccc([N+](=O)[O-])cc2)cc1 | i
CN(CC(=O)N1CCN(c2ccccn2)CC1)S(=O)(=O)c1ccccc1 | i
O=C(CSc1nnc(-c2ccccc2)n1-c1ccccc1)Nc1ccccc1F | 1%
Cn1c(CCNC(=O)c2cccs2)nnc1SCC(=O)N1CCN(c2ccccc2)CC1 | i
CCCc1cc(=O)oc2cc(C)cc(OCc3c(F)cccc3F)c12 | i
Cc1ccc(C2(c3ccc(C)o3)C(=O)Nc3ccccc32)o1 | 4%
CCn1c(SCC(=O)Nc2ccc(C)c([N+](=O)[O-])c2)nnc1-c1ccc(OC)cc1 | 4%
Cc1cc(I)ccc1NC(=O)CN(c1ccc(F)cc1)S(C)(=O)=O | i
CCCCOc1ccccc1NC(=O)C(F)(F)F | i
Cc1ccc(NS(=O)(=O)c2ccc(NS(=O)(=O)c3ccc(C)c([N+](=O)[O-])c3)cc2)cc1 | i
O=C(CC1CCCCC1)Nc1ccc(I)cc1 | i

6 structures from above, arranged by length of the SMILES, low to high.
Molecule | Mtb H37Rv
CCOc1ccccc1NC(=O)N1CCC2(CC1)OCCO2 | i
Cc1ccc(C2(c3ccc(C)o3)C(=O)Nc3ccccc32)o1 | 4%
CCCc1cc(=O)oc2cc(C)cc(OCc3c(F)cccc3F)c12 | i
Cn1c(CCNC(=O)c2cccs2)nnc1SCC(=O)N1CCN(c2ccccc2)CC1 | i
CCn1c(SCC(=O)N2c3ccccc3Sc3ccccc32)nnc1C(C)NC(=O)c1ccc(Cl)cc1Cl (stereo not drawn) | i
Cc1ccc(NS(=O)(=O)c2ccc(NS(=O)(=O)c3ccc(C)c([N+](=O)[O-])c3)cc2)cc1 | i

Next part:
Molecule | Mtb H37Rv
Cc1cccc(C(=O)NC(c2nnc(SCC(=O)NCCc3ccccc3)n2C)C(C)C)c1 (stereo not drawn) | i
CCOc1ccccc1CNn1cnnc1 | i
O=C(Nc1ccc(Cl)cc1[N+](=O)[O-])c1cccc2ccccc12 | i
CCOC(=O)Nc1sc2c(c1C(=O)OCC)CCCCC2 | 12%
O=C(CCc1ccccc1)Nc1ccc(S(=O)(=O)NCc2ccccc2)cc1 | i
COc1cc(/C=C(\C#N)c2nc3ccc(Cl)cc3c(=O)[nH]2)ccc1OCc1ccccc1 | i
Cc1c(Cl)cccc1NC(=O)C(=S)N1CCCCC1 | i
CC1=CC(C)(C)N2C(=O)C(=O)c3cc(OC(=O)c4ccco4)cc1c32 | 33%
CCOc1ccccc1C(=O)Nc1ccc(S(=O)(=O)N2CCC(C)CC2)cc1 | i
CCc1cc(=O)oc2cc(OCc3c(F)cccc3F)c(Cl)cc12 | i
CSc1ccccc1NC(=O)c1ccccc1C | 1%
O=C(COc1ccc2c(-c3ccccc3)cc(=O)oc2c1)c1ccccc1 | i
Cc1ccc(-c2nnc(NCc3ccccc3)c3ccccc23)cc1S(=O)(=O)N1CCN(C)CC1 | 49%
Cc1nc(NCc2ccccc2)c2c3c(sc2n1)CCCC3 | i
CCN(CC)c1ccc(NC(=S)NC(=O)c2ccc(-c3ccccc3)cc2)cc1 | i
COc1ccc(CNC(=O)C2CCN(C(=O)c3ccccc3C)CC2)cc1 | i
CC(=O)c1cc2c(cc1NC(=O)c1ccco1)OCCO2 | i
CN1CCN(NC(=O)c2cccc(COc3ccccc3Cl)c2)CC1 | i
CCOc1ccc(/C=C2/C(=O)NC(=O)N(c3ccccc3F)C2=O)cc1OCC | i
CCOC(=O)c1cc(NC(=O)CSCCO)ccc1Cl | ?
C=CCOc1c(CNc2ccc(Cl)c(Cl)c2)cccc1OC | 24%
CC(=O)Nc1ccc(-c2nnc(SCC(=O)c3ccc4c(c3)Cc3ccccc3-4)n2C)cc1 | i
O=C(C1CC1)N(CCN(C(=O)C1CC1)c1ccccc1)c1ccccc1 | i
Cc1ccc(N2CCN(CCNC(=O)NCc3ccccc3)CC2)cc1 | i
O=C(CSCc1ccccc1Br)N1CCN(c2cccc(Cl)c2)CC1 | i
O=C(CC1NC(=O)NC1=O)Nc1ccc(C(=O)O)cc1 (stereo not drawn) | i
CC(C)OC(=O)c1cc(N)ccc1Cl | i
Cc1cc(NC(=O)C(Cc2ccccc2)N2C(=O)C3C4C=CC(C4)C3C2=O)c(C)cc1Br (stereo not drawn) | 1%
CCOC(=O)c1sc(NC(=S)Nc2ccc3c(C(F)(F)F)cc(=O)oc3c2)c(C(=O)OCC)c1C | i
COc1cc(N2CCOCC2)ccc1/C=C(/C#N)c1ccc(F)cc1 | 4%
CC(C)C(=O)Nc1ccc(C(=O)Nc2nnc(Cc3ccc(Cl)cc3)s2)cc1 | i
Cc1nc2nc(-c3ccco3)nn2c(C)c1Cl | 1%
CCOc1ccc(C(=O)Nc2ccc(Cl)c(-c3nc4cc(Cl)ccc4o3)c2)cc1[N+](=O)[O-] | 5%
CCc1cccc(C)c1NC(=O)CN(c1ccc(C)cc1)S(=O)(=O)c1ccc(SC)cc1 | i
CC(C)C1Cc2c(sc3nc(SCC(=O)Nc4ccc(Cl)cc4Cl)nc(N)c23)CO1 (stereo not drawn) | i
Cc1cccc(NC(=O)CC2Nc3ccccc3NC2=O)c1C (stereo not drawn) | i
CS(=O)(=O)N(CC(=O)Nc1cccnc1)c1ccccc1Br | i
CC(=O)c1ccc(NC(=O)c2ccc(-n3nc(C(F)(F)F)c4c3CCCC4)cc2)cc1 | i
O=C(NC1CCS(=O)(=O)C1)c1cccc(S(=O)(=O)N2CCOCC2)c1 (stereo not drawn) | 1%
CCCCOc1ccc(NCN2C(=O)c3ccccc3C2=O)cc1 | 15%

The list goes on, overlapping the part above by 6 compounds.
Molecule | Mtb H37Rv
CC(C)C1Cc2c(sc3nc(SCC(=O)Nc4ccc(Cl)cc4Cl)nc(N)c23)CO1 (stereo not drawn) | i
Cc1cccc(NC(=O)CC2Nc3ccccc3NC2=O)c1C (stereo not drawn) | i
CS(=O)(=O)N(CC(=O)Nc1cccnc1)c1ccccc1Br | i
CC(=O)c1ccc(NC(=O)c2ccc(-n3nc(C(F)(F)F)c4c3CCCC4)cc2)cc1 | i
O=C(NC1CCS(=O)(=O)C1)c1cccc(S(=O)(=O)N2CCOCC2)c1 (stereo not drawn) | 1%
CCCCOc1ccc(NCN2C(=O)c3ccccc3C2=O)cc1 | 15%
CCN(CC)C(=O)c1cccc(-c2ccc(OC)cc2)c1 | i
Cc1ccc(C)c(OCC(=O)Nc2ccc(Cl)c(Cl)c2)c1C | 12%
O=C(CN1C(=O)c2ccccc2S1(=O)=O)Nc1ccc(Br)cc1F | i
O=C(Nc1ccc(S(=O)(=O)Nc2nccs2)cc1)C1(c2ccccc2)CCOCC1 | i
Cc1cc(C(C)(C)C)ccc1OCCOCCN1CCCC1 | i
O=C(CSc1nnnn1-c1ccccc1)N1c2ccccc2CCc2ccccc21 | i
CC(=O)c1ccc(N2CCN(c3ncnc(N)c3[N+](=O)[O-])CC2)cc1 | 2%
CCOc1cc(CNCc2ccccc2OCc2ccccc2)cc(Cl)c1OCC | 1.9µg/mL*
CCOc1ccccc1NC(=O)CN(c1ccc(Cl)cc1C)S(C)(=O)=O | i
CC(=O)Nc1sc2c(c1C(=O)Nc1ccccc1Cl)CCC2 | i
Cc1cccc(S(=O)(=O)Nc2cccc([N+](=O)[O-])c2)c1 | i
CN1C(=O)C2C=CC1C1C(=O)N(Cc3ccccc3)C(=O)C21 (stereo not drawn) | i
Cc1ccc(OCCOCCOc2ncnc3ccccc23)c(C)c1 | i
COC(=O)c1sc2ncn(CC(=O)Nc3ccccc3OC)c(=O)c2c1C | i
CC(C)CNC(=O)c1ccc(NC(=O)c2cccs2)cc1 | i
COC(=O)c1sc2nc(-c3ccccc3)nc(NC(=O)c3ccccc3)c2c1C | i
CC(=O)Nc1ccc(Nc2nc(-c3sc(C)nc3C)cs2)cc1 | 1%
CCOC(=O)c1cc(=O)c(-c2ccccc2)n[nH]1 | 3.8µg/mL*
O=C(Nc1ccc(Br)cc1)C1OCCc2ccccc21 (stereo not drawn) | 0%
O=C(Nc1nc2ccc([N+](=O)[O-])cc2s1)c1cncc(Br)c1 | 2%

The list goes on:
SMILES	Mtb H37Rv
COc1cccc(C(=O)Nc2ccc(NC(=O)C3CC=CCC3C(=O)O)cc2)c1 (stereo not drawn)	i
Cc1ccc(/C(N)=N/OC(=O)COc2ccccc2Cl)cc1	7%
Cc1ccc(C(=O)Nc2ccccc2C(=O)Nc2cccc(C)n2)cc1	i
CCc1ccc(Oc2cn[nH]c2-c2ccc(OCc3cnn(-c4ccccc4)c3)cc2O)cc1	21%
O=C(CCSc1ccccc1)NCc1ccccc1	i
O=C(CN(c1ccccc1F)S(=O)(=O)c1ccccc1)Nc1ccccc1C(=O)O	i
Cc1cccc(OCc2nnc(SCC(=O)Nc3cc(Cl)c(Cl)cc3Cl)o2)c1	i
COc1ccc(NC(=O)C2=C(C)NC(=S)NC2c2ccccc2C)cc1 (stereo not drawn)	i
C=CCOc1cccc(CNCCCN2CCOCC2)c1	i
Cc1cc(Cl)c(S(=O)(=O)Nc2ccc3c(c2)OCCO3)cc1OCC(=O)NC1CCCCC1	i
O=C(CCc1ccccc1)Nc1ccc(CSc2ccccc2)cc1	i
Cc1ccc(Cc2cnc(NC(=O)c3ccccc3)s2)cc1Cl	i
Cc1ccc(Cl)cc1N(CC(=O)N1CCN(c2cccc(Cl)c2)CC1)S(C)(=O)=O	9%
O=C(CCC(=O)Nc1nc2ccccc2s1)Nc1nc2ccccc2s1	i
NCCc1c[nH]c2ccc(OCCO)cc12	i
COc1ccc(S(=O)(=O)N(C)CC(=O)N2CCCCCC2)cc1Cl	i
CCOC(=O)c1ccc(NC(=S)NNS(=O)(=O)c2cc(Cl)c(Cl)cc2Cl)cc1	i
COc1ccc(-c2nc3n(n2)C(=O)CC(c2ccc(Cl)c(Cl)c2)S3)cc1 (stereo not drawn)	i
Cc1nc(SCC(=O)N2CCN(c3ccccc3)CC2)[nH]c(=O)c1C	i
COc1cc(C2Nc3ccc4ccccc4c3C3=C2C(=O)CC(C)(C)C3)cc2sc(=O)oc12 (stereo not drawn)	14%
Cn1cccc1/C=N/N1CCN(Cc2cccc3ccccc23)CC1	1%
CCC(Oc1ccccc1)C(=O)Nc1cc(OC)cc(OC)c1 (stereo not drawn)	4%
Cc1cccc(C)c1OC(=O)CCN1C(=O)C2C3C=CC(C4CC34)C2C1=O (stereo not drawn)	i
CC(=O)n1c(SCC(=O)Nc2ccccc2)nc2ccccc21	i
COC(=O)c1c(NC(=S)Nc2cccc(Cn3cc(Cl)cn3)c2)sc2c1CCC2	i
CCOc1ccc(-c2nn3c(-c4ccccc4)nnc3s2)cc1	i
S=C(NCC1CCCO1)n1nnc2ccccc21 (stereo not drawn)	4%
CN(CCO)C(=O)c1cc2c(n(-c3ccccc3)c1=O)CCCC2=O	i
Fc1ccc(CNCc2ccc3c(c2)OCO3)cc1F	2%
CS(=O)(=O)N1CCc2cc(C(=O)Nc3cc(Cl)ccc3Cl)ccc21	i
CC(Cc1ccccc1)NC(=O)NC(C)Cc1ccccc1 (stereo not drawn)	0%
O=C(c1cc2ccccc2o1)c1cccs1	i
COc1ccccc1NC(=O)Cc1c(OC)ccc2cc(Br)ccc12	i
CCn1c2ccc(OC)cc2c2n[nH]c(=S)nc21	i
Cc1ccc(-c2nn(CC(=O)Nc3ccccc3Cl)c(=O)c3ccccc23)c(C)c1	6%
CCC(=O)c1ccc(N2CCN(CC)CC2)c(F)c1	i
Cc1ccc(Cl)cc1N(CC(=O)N1CCc2ccccc2C1)S(C)(=O)=O	i
CCCCOc1nc(N)nc(-c2ccccc2)n1	6%
C=CCc1cc(Cl)ccc1OCCN1CCN(C)CC1	i
OCCCCNc1ncnc2sc3c(c12)CCCC3	i
O=C(CCc1ccccc1)Nc1nnc(SCC(=O)c2cccc([N+](=O)[O-])c2)s1	i
O=C(COc1ccc2ccccc2c1)N1CCC(N2CCCCCC2)CC1	i
CCOCCCNC(=S)NCCc1ccccc1	i
O=C(Cc1ccccc1)OCC(=O)c1ccccc1	i
Cc1cccc(NC(=O)C(Cc2ccccc2)N2C(=O)c3ccccc3C2=O)n1 (stereo not drawn)	i
COc1ccc(N/C(=N\c2nc(CSc3nc4ccccc4s3)cc(=O)[nH]2)NC(=O)c2ccccc2)cc1	i
COc1ccccc1-n1nnnc1SCC(=O)NC1CCCC1	i
CC(Oc1ccc(Cl)cc1Cl)C(=O)Nc1ccccc1C#N (stereo not drawn)	10%
CCc1cccc(C)c1NC(=O)C1CCN(C(=O)c2ccc(OC)cc2)CC1	i
COc1cc(NC(=O)N2CCOCC2)cc(OC)c1	1%
Cc1c(C)n2c3c(cccc13)CCC2	i
CN1C(=O)c2ccc(NC(=O)c3cccc(N4C(=O)CCC4=O)c3)cc2C1=O	i
O=C(CN1C(=O)C2C3CCC(C3)C2C1=O)NCc1ccco1 (stereo not drawn)	i
O=C(CN1C(=O)c2ccccc2C1=O)Nc1cccc(-c2nc3ccccc3[nH]2)c1	i

This is a subset (hit frequency here may not be typical).
